VACV Venus inh – qHTS for Stage-Specific Inhibitors of Vaccinia Orthopoxvirus: Venus Reporter Primary qHTS; Potency, µM (titrated, usually from 36.5 µM), inactives show top-dose activity change, negative = inhibition, hits mostly inhibitors; Vaccinia virus Venus reporter expression, fluorescence; 330,000 compounds, 0.46% hits; active means well fitted inhibition curve with a large enough effect; inconclusive means small, poorly fitted or top-dose-only effect; inactive means no such curve, though single readings can be large or run the other way; tested in A549 cells; further: nearly all actives have a fitted effect of over 30% in size; inactives centre near -10
Vaccinia mCherry – qHTS for Stage-Specific Inhibitors of Vaccinia Orthopoxvirus: mCherry Reporter Primary qHTS. Vaccinia virus mCherry reporter infection, fluorescence; about a quarter of the inactives have no number. Potency, µM (highest dose often 36.5 µM), for inactives: top-dose activity change, negative = inhibition, most hits filed as inhibitors. 310,000 compounds, 0.63% hits. AID 720579, 2013; active = well fitted inhibition curve with a large enough effect; inconclusive = small, poorly fitted or top-dose-only effect; inactive = no such curve, though single readings can be large or run the other way; tested in A549 cells; further: nearly all actives have a fitted effect of over 35% in size; inactives centre near -10
* hit, by the source's call; i = inactive; ? = inconclusive; · = no result given; & = joins results of further samples; [ ] = another dose, or the depositor's remark. On the % scale 0 is the no-effect control and ±100 the full control effect; potency means the concentration at half of the fitted maximal effect.

Compound,VACV Venus inh,Vaccinia mCherry
N/C(=N\OC(=O)c1ccc(Cl)cc1)c1nonc1N,-6%,-19%
CCNC(=O)/C(C#N)=C/c1c(N2CCN(c3ccc(OC)cc3)CC2)nc2c(C)cccn2c1=O,-21%,-17%
COc1ccccc1OCC(=O)n1cc(C(=O)c2cc(Cl)cc(Cl)c2O)cn1,5%,-3%
COc1ccc(Cc2nccc3cc(OC)c(OC)cc23)cc1OC,?,?
COc1ccc(-c2cc(OC(=O)c3cccc(C)c3)c3c(C)oc(C)c3c(=O)c2)cc1,53%[activator],13%
Cc1ccc(C)c(S(=O)(=O)N2CCCC2CNC(=O)C(=O)NC2CCCCCC2)c1 (configuration not stated),-23%,-26%
Cc1ccc(CNC(=O)CCc2c(C)nn(-c3ccc(N4CCCCC4)nn3)c2C)cc1,-11%,-5%
CO/N=C/Cc1c([N+](=O)[O-])c(C)nn1C,-4%,-8%
Cc1ccc(-c2cc(-c3ccccc3)c(C#N)c(Br)n2)cc1,-4%,-15%
CC(C)C(OC(=O)C1=Cc2ccccc2OC1)C(=O)NC1CCCC1 (configuration not stated),-10%,i
CCC(C)(C)C(=O)Nc1cc([N+](=O)[O-])ccc1F,-13%,-12%
c1ccc(C(OCCN2CCN(c3ncccn3)CC2)c2ccccc2)cc1,-28%,-4%
O=C(NCCc1ccc(Cl)cc1)c1ccc(CSCc2cccc(Cl)c2)o1,-11%,-18%
CCSc1nc2ccccc2n1CCC(=O)O,-9%,·
Cc1c(NS(=O)(=O)c2cccc(C(=O)NCc3ccncc3)c2)c(=O)n(-c2ccccc2)n1C,-10%,·
CCOC(=O)c1c(NC(C)=O)c2c3c(sc2n1Cc1nc(-c2ccc(Cl)cc2)oc1C)CCCC3,-18%,-12%
CCCC(=O)Nc1ccc(-c2ccc(NC(=O)CCC)cc2)cc1,-6%,-14%
Cc1cn(C(=O)C(C)N2C(=O)c3ccccc3C2=O)c(C)n1 (configuration not stated),-16%,-3%
Cc1cc(N)ccc1-c1cc2ccccc2oc1=O,-9%,i
Cc1cc(NC(=O)CSCC(=O)N2CCN(c3ccccc3)CC2)no1,3%,-15%

(list continues)
Compound,VACV Venus inh,Vaccinia mCherry
Cn1c(=O)c2sccc2n2c(CCC(=O)NCc3ccc(Cl)cc3)nnc12,-13%,-15%
O=C(COc1ccccc1F)NCCc1ccc2c(c1)OCCO2,-10%,-6%
COc1cccc(CN2c3ccccc3-c3nc(SCC(=O)Nc4cccc(C)c4)ncc3S2(=O)=O)c1,15%,17%
COc1ccccc1CCNC(=O)CCn1c(=O)c2cccn2c2ccc(F)cc21,-15%,-4%
Cc1csc2ncc(C(=O)NCc3ccco3)c(=O)n12,-26%,-30%
COc1ccc(N(C)S(=O)(=O)c2cccc(C(=O)OC(C)C(=O)NC3CCCCC3C)c2)cc1 (configuration not stated),-16%,-23%
COc1ccc(Cc2nnc(SC)n2-c2ccc(F)cc2)cc1OC,2%,-14%
CCc1nc2ccccc2c(C(=O)OCC(=O)N2CC(C)OC(C)C2)c1C (configuration not stated),-15%,-27%
Cc1cc([N+](=O)[O-])ccc1NC(=O)C(C)N1CCN(c2ccccn2)CC1 (configuration not stated),-15%,-18%
CC(=O)NC1C(OCc2ccccc2)OC(CO)C(OC(C)=O)C1OC(C)=O (configuration not stated),-16%,-18%
CCC(C(=O)NCCc1ccc(OC)c(OC)c1)n1nc(C)c2sc3ccccc3c2c1=O (configuration not stated),-24%,-7%
COc1cc(C(=S)N2CCOCC2)ccc1O,0%,i
COC(=O)C1CCCN1S(=O)(=O)c1ccccc1NC(=O)c1cc(OC)c(OC)c(OC)c1 (configuration not stated),-13%,i
Cn1c(=O)n(Cc2ccc(F)cc2)c(=O)c2c1nc1n2CCCN1Cc1ccccc1,-15%,·
CCc1cccc(C)c1NC(=O)CCOc1ccccc1,-4%,-6%
CCCc1n[nH]c2c1/C(=N\O)CCC2,-14%,-10%
CCCS(=O)(=O)N1CCN(Cc2ccc(OCc3ccccc3)c(OC)c2)CC1,-20%,-24%
S=c1nc(-c2ccc(Cl)cc2)[nH][nH]1,-14%,-2%
O=C(CCN1C(=O)C2CC=C(Cl)CC2C1=O)NCc1ccccc1 (configuration not stated),-9%,·
Cc1c(C(=O)O)oc2c(F)cccc12,-15%,i

Gathered by group: the entries above containing a furan ring, fused or not
Compound,VACV Venus inh,Vaccinia mCherry
COc1ccc(-c2cc(OC(=O)c3cccc(C)c3)c3c(C)oc(C)c3c(=O)c2)cc1,53%[activator],13%
O=C(NCCc1ccc(Cl)cc1)c1ccc(CSCc2cccc(Cl)c2)o1,-11%,-18%
Cc1csc2ncc(C(=O)NCc3ccco3)c(=O)n12,-26%,-30%
Cc1c(C(=O)O)oc2c(F)cccc12,-15%,i

(listing goes on)
Compound,VACV Venus inh,Vaccinia mCherry
Cc1ccc(-c2cc(C(=O)NC3CCN(Cc4ccccc4)CC3)c3ccccc3n2)cc1,3%,-10%
COc1ccc(CN2C=C3C(=O)C(C)(OC(=O)C4CCCC4)C(=O)C=C3C=C2c2ccsc2)cc1 (configuration not stated),-11%,i
O=S(=O)(c1ccc(F)cc1)N1CCN(CC(O)COCc2ccccc2)CC1 (configuration not stated),-17%,i
Cc1cc(C(=O)N2CCCC(N3CCN(c4ccccc4C)CC3)C2)no1 (configuration not stated),-11%,-18%
Cc1ccc(CNC(=O)COC(=O)c2cncc(Br)c2)cc1,0%,i
CCOc1ccc(/C=C/C(=O)N(CC)CC(=O)Nc2ccc3c(c2)OCCO3)cc1OC,-7%,-12%
COc1ccc(C(=O)NCC(=O)OCC(=O)N2CCC(C)CC2)cc1OC,-2%,-3%
COc1ccccc1/C=N/NC(=O)CCSc1ccccc1,-16%,i
O=C(Nc1ccccc1)N1CCCN(Cc2ccccc2F)C1,-8%,·
O=C(C1=C(O)C(=O)N(CC2CCCO2)C1c1ccccc1[N+](=O)[O-])c1ccco1 (configuration not stated),-6%,-20%
O=S(=O)(c1ccc(F)cc1)N1CCN(c2nc(-c3ccccc3)nc3ccccc23)CC1,-11%,-9%
COc1ccc(-c2noc(CCCC(=O)Nc3ccc(C(N)=O)cc3)n2)cc1OC,-7%,-25%
COc1ccc2oc(C(=O)OCC(=O)N(C)c3c(N)n(Cc4ccccc4)c(=O)[nH]c3=O)c(C)c2c1,-10%,-13%
COc1ccccc1N(CC(=O)NC1CCCC1)C(=O)CCC(=O)Nc1cc(C)on1,-28%,-9%
Cc1cccc(OCC(=O)OC(C)C(=O)Nc2ccc(S(=O)(=O)N3CCCCC3)cc2)c1 (configuration not stated),-15%,-13%
CCOC(=O)C(NC(=O)c1ccc(OC)cc1)(OCC1(CC)COC1)C(F)(F)F (configuration not stated),-9%,i[1.46 µM]
O=C(CN1CCCC1)c1ccccc1,-13%,i
COc1ccc(-c2noc(-c3ccc(N4CCOCC4)c([N+](=O)[O-])c3)n2)cc1,-7%,-5%
CCc1ccc2c(c1)C(NC(C)=O)C(=O)N2CCN1CCOCC1 (configuration not stated),-2%,i
C/C=C(/C)C(=O)Nc1cccc(C2=NOC3(C2)C[C@@H](C(N)=O)N(C(=O)CCCCC)C3)c1 (some centres not stated),-7%,-4%

(next part)
Compound,VACV Venus inh,Vaccinia mCherry
CN(C(=O)CN1C(=O)S/C(=C\c2ccc(F)cc2)C1=O)C1CCS(=O)(=O)C1 (configuration not stated),-16%[7.34 µM],i[7.34 µM]
COc1ccc(C(=O)C2CN(c3ccccc3)CC2c2ccc(Cl)cc2)cc1 (configuration not stated),-5%,·
CCOc1ccc(OCCC(=O)OCC(=O)Nc2ccc(N3CCOCC3)cc2)cc1,-18%,i
O=C(Nc1nnc(S(=O)(=O)N2CCCc3ccccc32)s1)c1ccccc1Cl,-11%,-8%
O=C(COc1ccc(Cl)cc1Cl)NC(=O)N1CCCCC1,-18%,-15%
CCCN(C)C[C@@H]1OCCCC[C@@H](C)Oc2ccc(NS(=O)(=O)c3ccc(OC)cc3)cc2C(=O)N([C@H](C)CO)C[C@@H]1C,-10%,-7%
C[C@@H](NC(=O)c1nc[nH]c1C(=O)NCCCCCNC(=O)OC(C)(C)C)c1ccccc1,?,-7%
COc1ccc(N2CC(C(=O)Nc3c(C(N)=O)oc4ccccc34)CC2=O)cc1 (configuration not stated),-15%,?
COc1ccc([C@H]2N[C@]3(CCCN(CC4CCCCC4)C3=O)[C@H]3C(=O)N(C)C(=O)[C@@H]23)cc1,-12%,-7%
O=C(c1cnn2c1NC(c1ccc(Br)cc1)CC2C(F)(F)F)N1CCN2CCCC2C1 (configuration not stated),-18%,?
Cc1ccc(CN2CC(C(=O)Nc3ccc(C)cn3)CC2=O)cc1 (configuration not stated),-7%,-13%
Cc1cc(NC(=O)C2CC(=O)N(c3ccc(F)cc3)C2)no1 (configuration not stated),2%,-5%
Cc1ccc(NC(=O)CCC(=O)NNC(=O)c2cccc([N+](=O)[O-])c2)cc1C,-12%,i
Cc1ccc(S(=O)(=O)NC(=O)c2cccc(Br)c2)cc1,-9%,i
COc1ccccc1CNC(=O)C1CCN(c2ncnc3c2nc2n3CCCCC2)CC1,-6%&-10%,i
O=C(/C=C/c1ccc([N+](=O)[O-])cc1)OCC(=O)c1ccc[nH]1,-14%,?
O=C(CSc1ccccn1)NCc1ccc2c(c1)OCO2,25%,-3%
CCN(c1ccccc1)c1nnc(NC(=O)Nc2ccc(Br)c(C)c2)s1,-21%,-23%
CCCCC(=O)Nc1cc(C)c(NC(=O)c2cccs2)cn1,-17%,-1%
CCN(CC)c1ccc(NC(=O)C(NS(=O)(=O)c2cccs2)C(C)C)c(C)c1 (configuration not stated),1%,-9%

Next section
Compound,VACV Venus inh,Vaccinia mCherry
O=S(=O)(Nc1ccc(-c2ccc(N3CCOCC3)nn2)cc1)c1cc(Cl)ccc1Cl,-18%,i
CCn1c(SCc2ccc(C(=O)Nc3nccs3)cc2)nnc1-c1ccc(N)cc1,?,?
O=C(Nc1ccc(COc2ccccc2)cc1)Oc1ccccc1N1CCOCC1,3%,-5%
CCOC(=O)c1c(C)[nH]c(C)c1C(=O)CSc1nc2ccccc2c(=O)n1-c1ccccc1C,?,-15%
CCN(C(=O)COC(=O)/C=C/c1cnc2ccccc2n1)C1CCS(=O)(=O)C1 (configuration not stated),?,?
CN(C)S(=O)(=O)c1ccc(NC(=O)COC(=O)C2COc3ccccc3O2)cc1 (configuration not stated),-6%,-9%
CCOC(=O)C1=C(C)N=c2s/c(=C/c3ccc(OCC(=O)O)cc3)c(=O)n2C1c1cc(OC)c(OC)c(OC)c1 (configuration not stated),11%,-17%
CN(Cc1ccccc1)C(=O)c1ncn2c1c(=O)[nH]c1cccnc12,-15%,i
CCC(C)OC(=O)/C(C#N)=C\c1ccc(-c2ccccc2Cl)o1 (configuration not stated),6%,-11%
Cc1ccc(NC(=O)CN(C)C(=O)CSc2nc(C)cs2)cc1,-9%,4%
CCCCCCCCCCOC(=O)Cn1c(COc2ccc(OC)cc2)[n+](C)c2ccccc21,11µM*,?
CCOC(=O)N1CCN(C(=O)c2cccc(NC(=O)c3ccco3)c2)CC1,-15%,·
CC(=O)c1ccc(NC(=O)c2cc(C3CC3)nc3c2c(C)nn3-c2ccc(C)cc2)cc1,0%,-6%
O=C(CN1Cc2ccccc2OC(c2ccsc2)C1)N1CCN(Cc2ccc3c(c2)OCO3)CC1 (configuration not stated),-7%,-13%
Cc1ccc(C(C)C)c(OCCn2cc(C(=O)c3ccco3)c3ccccc32)c1,-17%,-6%
CCCCCC1C(=O)N2C=C(c3ccccc3)c3ccccc3N2C1=O (configuration not stated),-11%,-19%
C=Cc1ccc(CSc2nc(-c3ccc(Cl)cc3)nc3c2Cc2c(CO)cnc(C)c2O3)cc1,0%,6%
CCCn1c(=O)[nH]c(=O)c2[nH]cnc21,-17%,-6%
CCCCN(C(=O)c1cccc(-n2cccc2)c1)c1c(N)n(CCC)c(=O)[nH]c1=O,-10%,-9%
CC(C)C1Nc2c(C(=O)O)cccc2C(Nc2ccccc2C(=O)O)C1(C)C (configuration not stated),-3%,-5%
O=C(Nc1ccc2c(c1)[C@H]1C[C@@H](CC(=O)N3CCOCC3)O[C@@H](CO)[C@H]1O2)C1CCOCC1,-14%,i
CC1O[C@@H](O[C@H](C)CC[C@@H](C)O)C(O)C[C@H]1O (some centres not stated),1%,-14%

Reprinted at random: four compounds from above
Compound,VACV Venus inh,Vaccinia mCherry
Cc1ccc(C)c(S(=O)(=O)N2CCCC2CNC(=O)C(=O)NC2CCCCCC2)c1 (configuration not stated),-23%,-26%
CCOc1ccc(/C=C/C(=O)N(CC)CC(=O)Nc2ccc3c(c2)OCCO3)cc1OC,-7%,-12%
CCOC(=O)c1c(C)[nH]c(C)c1C(=O)CSc1nc2ccccc2c(=O)n1-c1ccccc1C,?,-15%
COc1ccc2oc(C(=O)OCC(=O)N(C)c3c(N)n(Cc4ccccc4)c(=O)[nH]c3=O)c(C)c2c1,-10%,-13%

Source: PubChem (National Center for Advancing Translational Sciences (NCATS))
